VACV mCherry inh: inhibitors of vaccinia virus infection (mCherry reporter signal); Vaccinia virus mCherry reporter infection, fluorescence; about a quarter of the inactives have no number; Potency, µM (highest dose often 36.5 µM), for inactives: at the highest dose activity change, negative = inhibition, most hits filed as inhibitors; 310,000 tested, 0.63% active; active = well fitted inhibition curve with a large enough effect; inconclusive = small, poorly fitted or top-dose-only effect; inactive = no such curve, though single readings can be large or run the other way; tested in A549 cells; also: nearly all actives have a fitted effect of over 35% in size; inactives centre near -10
VACV Venus inh: vaccinia inhibition (Venus reporter); Vaccinia virus Venus reporter expression, fluorescence; 330,000 tested, 0.46% active; Potency, µM (series often up to 36.5 µM), inactives show at the top dose activity change, negative = inhibition, most hits filed as inhibitors; active means well fitted inhibition curve with a large enough effect; inconclusive means small, poorly fitted or top-dose-only effect; inactive means no such curve, though single readings can be large or run the other way; tested in A549 cells; also: nearly all actives have a fitted effect of over 30% in size; inactives centre near -10
Active calls of the source: *; i = inactive; ? = inconclusive; nt = not tested or not shown; & = joins results of further samples; [ ] = another dose, or the depositor's remark. % is scaled to controls: 0 for no effect and ±100 for the full control effect; potency is read from the fitted curve at half-maximal effect.

SMILES	VACV mCherry inh	VACV Venus inh
O=C(c1ccc2c(c1)OCO2)N(Cc1cccs1)C1(C(=O)NC2CCCCC2)CCCCC1	16µM*	?
COc1ccc(/C=N/NC(=O)c2cccc3ccccc23)c(OC)c1OC	-11%[7.34 µM]	-3%[7.34 µM]
COc1cccc(N2CCN(C(=O)CCCCCNc3nc(=S)[nH]c4ccccc34)CC2)c1	-9%	-19%
COC1(OC)N=C(NC(=O)Nc2ccccc2)C2(C#N)C(c3ccccc3)C12C#N (centres undefined)	nt	-1%
CCCOc1ccc(C(C)=O)cc1CSc1nc(O)cc(=O)[nH]1	-23%	-14%
COc1ccc(C(CNC(=O)CNC(=O)c2cccc(Cl)c2)N2CCCC2)cc1 (centres undefined)	-24%	-15%
CC(C)c1nn2c(=O)cc(COC(=O)c3ccc(NC(=O)COc4ccccc4)cc3)nc2s1	-18%	-11%
CCOC(=O)CCSc1nc(C)cc(C(F)(F)F)c1C#N	-14%	-3%
CCc1nc2ccc(C(=O)Nc3ccc(OC)c(OC)c3)cn2c1N(C)CCC(C)C	i	-10%
O=C(COc1ccc(F)cc1)Nc1ccc(Cl)c(-c2nc3ccccc3[nH]2)c1	-10%	-18%
Brc1ccc2nc(-c3ccco3)c(CC3CCCCC3)n2c1	7%	-1%
C[C@@H](NC(=O)[C@@H]1CCCN1C(=O)[C@@H]1CCCN1C(=O)c1ccc(Cl)cc1)c1ccccc1	i	-4%
O=C(COc1cccc2cccnc12)Nc1ccccc1N1CCOCC1	-12%	0%
CC(/C=C/c1ccc2c(c1)OCO2)=N/NC(=O)c1ccc(C)nc1	-15%	-18%
COc1ccc(-c2cc(C(=O)Nc3ccn(Cc4ccc(C)cc4)n3)no2)cc1OC	5%	-3%
OC(CNc1ncnc2sccc12)c1ccccc1 (centres undefined)	-6%	-28%
COc1ccc(C2(c3ccc(OC)cc3)NC(=O)N(CC(=O)N(C)c3ccccc3)C2=O)cc1	-2%	-14%
COC(=O)C1=C(c2ccc(OCc3ccccc3)cc2)C[C@@H]2CC[C@H]1N2C(=O)NCc1ccc(F)cc1	?	?
CC/C(=N\NC(=O)CSCc1ccccc1Cl)c1ccc2c(c1)OCCO2	-14%	-4%
CC(=O)c1ccc(N2CCN(C(=O)CCc3nnc4n(C)c(=O)c5sccc5n34)CC2)cc1	-10%	-17%
CCOc1ccccc1CN1CCc2nc(N3CCN(c4ccccc4F)CC3)ncc2C1	-28%	?
CCN(CC)S(=O)(=O)c1cc(C(=O)Nc2ccccc2C(=O)O)ccc1OC	-11%	-8%
CC1CCN(C(=O)CNC(=O)Cn2ccc3ccccc3c2=O)CC1	i	-10%
COc1ccc(NC(=O)CCOc2ccc(C)cc2)cc1S(=O)(=O)N1CCOCC1	i	-6%
O=C(NCCN1CCN(c2ccccc2F)CC1)C1c2ccccc2C(=O)N2CCc3ccccc3C12 (centres undefined)	-4%	-29%
O=C(NCC1CCCO1)C(=O)N/N=C/c1cccc(Cl)c1 (centres undefined)	?	-23%
CC(C)N(CC#CCC(O)(c1ccccc1)c1ccccc1)CCO	-9%	-11%
CCC(C)NC(=O)Nc1ccccc1F (centres undefined)	-6%	-19%
CN(c1ccc(C(=O)NCc2ccco2)cc1)S(C)(=O)=O	-18%	-6%
Cc1ccc(S(=O)(=O)NC(=O)C2(C)CCN2C(=O)c2ccccc2)cc1 (centres undefined)	i	0%
COc1ccc([C@@H]2C(C#N)=C(N)S[C@@H](c3ccccc3)[C@@H]2[N+](=O)[O-])cc1	-20%	-12%
CCCCCn1cnc2sc(-c3ccccc3)cc2c1=O	i	-4%
COc1cccc(C(=O)NC2CC3CCCC(C2)N3CC(=O)Nc2ccc(N(C)C)cc2)c1 (centres undefined)	-19%	-18%
COc1cc(C(=O)NCC(=O)Nc2c(C)cccc2C)ccc1OCc1ccccc1	-11%	-18%
COc1cccc(C(=O)Nc2cccc(-c3nnc(-c4ccco4)o3)c2)c1	?	?
O=C(NC1CCCC1)C(c1ccsc1)N(Cc1ccccc1)C(=O)Cc1cccs1 (centres undefined)	?	?
Nc1cc(=O)[nH]c(SCC(=O)Nc2ccccc2Sc2ccc(Cl)cc2)n1	-19%	-19%
Cc1ccc(C(=O)N2CCN(Cc3nc4sc5c(c4c(=O)[nH]3)CCCC5)CC2)cc1	-2%	4%
COc1ccc2[nH]c(=O)c(CN(CCCN(C)C)C(=O)Nc3ccccc3)cc2c1	nt	-1%
O=C(CCc1ccc(S(=O)(=O)N2CCOCC2)cc1)N/N=C/c1ccc(O)c(O)c1O	i	0%
COC(=O)/C=C1\N/C(=N/c2nc(C)c3cc(OC)ccc3n2)NC1=O	-10%	-17%
O=C(COC(=O)c1ccccc1-n1cnnn1)c1ccccc1	-15%	-5%
Cc1cccn2cc(CCNS(=O)(=O)c3cccs3)nc12	-14%	-13%
Cc1c(-c2ccccc2)n[nH]c1C(=O)NN	-10%	-6%
c1ccc2c(c1)[nH]c1cnccc12	3%	-7%&10%
COc1ccccc1C(=O)N1CCN(C(=O)c2oc3ccc(C)cc3c2C)CC1	-9%	-19%
O=C(NCc1ccccc1Cl)c1ccc(CSc2nc3ccncc3[nH]2)cc1	-16%	-10%
CC(C)(C)N1C(=O)c2ccccc2NC(=O)C1C(=O)NCCOc1ccccc1 (centres undefined)	7%	-12%
COc1ccc([C@H]2CC(=O)C=C(c3cccc(Cl)c3O)C2)cc1OC	?	-12%
C[C@H]1CN([C@@H](C)CO)C(=O)CCCn2cc(nn2)CO[C@@H]1CN(C)C(=O)c1ccncc1	-6%	-8%

The listing continues:
SMILES	VACV mCherry inh	VACV Venus inh
CCOC(=O)Cn1c(C(C)=O)nc2ccccc21	4%	-5%
COc1ccccc1Nc1ccc(S(=O)(=O)N2CCCCC2)cc1[N+](=O)[O-]	-17%	-15%
COc1cc(S(=O)(=O)n2ccc(C)n2)c(OC)cc1Cl	-16%	-9%
Cc1ccccc1NC(=O)CN1C(=O)S/C(=C/c2cccnc2)C1=O	-15%	-21%
Cc1cccc(CNC(=O)c2cnn(-c3nccc(-c4ccccc4C(F)(F)F)n3)c2C)n1	-10%	-12%
Cc1cccc(CN2C(=O)c3ccccc3Sc3ccc(C(=O)NCCc4ccccc4)cc32)c1	-20%	-8%
Cc1cc(-n2nc3ccccc3n2)c(O)c([N+](=O)[O-])c1	i	-9%
CC(c1nnc(SCC(=O)Nc2cc([N+](=O)[O-])ccc2F)n1Cc1ccccc1)N(C)C (centres undefined)	0%	-5%
O=C1NC(=O)C2(N1)C(=O)c1cccc3cccc2c13 (centres undefined)	-9%	42%[activator]
CCCCn1c(-c2c(Cl)c(C)nn2C)n[nH]c1=S	-7%	-1%

3 of the compounds above, with bars between the fields:
Molecule | VACV mCherry inh | VACV Venus inh
Cc1ccccc1NC(=O)CN1C(=O)S/C(=C/c2cccnc2)C1=O | -15% | -21%
CC(c1nnc(SCC(=O)Nc2cc([N+](=O)[O-])ccc2F)n1Cc1ccccc1)N(C)C (centres undefined) | 0% | -5%
CCOC(=O)Cn1c(C(C)=O)nc2ccccc21 | 4% | -5%

Next structures follow.
SMILES	VACV mCherry inh	VACV Venus inh
COc1ccc(CN(C)C(=O)c2ccc3c(=O)n4c(nc3c2)CCC4)c(OC)c1	-16%	-29%
Nc1nc2ncc(CNc3ccc(C(=O)NC(CCC(=O)O)C(=O)O)cc3)nc2c(=O)[nH]1 (centres undefined)	-7%&27%	-8%&-5%
CC(C(=O)NC1C(=O)N2C(C(=O)O)=C(CSc3nnnn3C)CSC12)n1cc(Br)cn1 (centres undefined)	-4%	-1%
COc1cc(NC(=O)C2CCC(CNc3c(N4CCCCC4)c(=O)c3=O)CC2)cc(OC)c1 (centres undefined)	-12%	-17%
CCCc1nnc(N2C(=O)c3cccc4cccc(c34)C2=O)s1	nt	-13%
Cc1ccc(S(=O)(=O)N2CCC3CC2c2cc(Cl)ccc23)cc1 (centres undefined)	-24%	3%
Cc1csc(SCC(=O)Nc2sc3c(c2C#N)CCC3)n1	nt	-23%
C[C@@H]1CN([C@H](C)CO)C(=O)c2cc(Br)cnc2O[C@@H]1CN(C)C(=O)CC1CC1	-10%	-14%
Cc1[nH]nc2ccc(-c3cncc(OC[C@@H](N)Cc4c[nH]c5ccccc45)c3)cc12	?	0.89µM*
CCCc1ccc(OCC(O)CN2CCN(c3ccccc3)CC2)cc1 (centres undefined)	?	-5%&-11%
COc1ccccc1CCNC(=O)C(=O)NCC(c1ccco1)S(=O)(=O)c1ccc(F)cc1 (centres undefined)	-6%	-16%
CC1(C)CC(=O)N(c2ccccc2)C1(C)O (centres undefined)	-8%	0%
COC(=O)[C@@H]1C[C@@H]2CC[C@@H](O)C[C@@H]2N1Cc1ccc(OC)cc1	-25%	4%
COc1ccc(CCNC(=O)COC(=O)c2cnccn2)cc1	nt	-15%
CC1C(O)CC2C(C(=O)O)=CO[C@@H](O[C@H]3OC(CO)C(O)C(O)C3O)C21 (some centres undefined)	-7%	6%
O=C(CN(Cc1ccc(Br)cc1)S(=O)(=O)c1ccccc1)NCc1ccncc1	-2%	-14%
Cc1cc2nc(NCCCO)n(CC(=O)c3cc(C(C)(C)C)c(O)c(C(C)(C)C)c3)c2cc1C	?	10µM*
CC(Sc1nnc(Cc2cccs2)n1C1CCCCC1)C(N)=O (centres undefined)	nt	-29%
CCOc1cc(S(=O)(=O)NCc2ccccc2)ccc1F	-23%	-12%
CC(=O)c1cccc(NC(=O)c2ccc3c(Cl)c4c(nc3c2)CCCC4)c1	-1%	-8%
O=C(C1CCN(S(=O)(=O)c2cccnc2)CC1)N1CCN(C2CCCC2)CC1	nt	-11%
CC1CCN(Cc2c(C(=O)N/N=C/c3cc(Br)ccc3O)nnn2-c2nonc2N)CC1	?	?
Cc1cc(S(=O)(=O)NCCCN2CCOCC2)ccc1F	-11%[1.46 µM]	-10%
Cc1nc2ccccn2c1C(=O)NN	-13%	-7%
Cc1cnccn1	-13%	-7%
CCN(CC)C(=O)c1oc2ccc(S(=O)(=O)N3CCCCCC3)cc2c1C	-1%	-16%
CC(=O)c1sc(Nc2cccc(C)c2)nc1C	-14%	-4%
CCC(=O)O[C@H]1[C@H](O[C@@H]2[C@@H](C)[C@H](O[C@H]3C[C@@](C)(OC)[C@@H](O)[C@H](C)O3)[C@@H](C)C(=O)O[C@H](CC)[C@@](C)(O)[C@H](O)[C@@H](C)C(=O)[C@H](C)C[C@@]2(C)O)O[C@H](C)C[C@@H]1N(C)C	-12%	?
CCNc1nc(NC(C)CC)nc(Oc2ccc(OCC)nn2)n1 (centres undefined)	-3%	3%
Cc1cc(Cl)cc(Cl)c1OCCOc1cccc2cccnc12	nt	-23%

Some of the entries above, set out differently.
| molecule | VACV mCherry inh | VACV Venus inh |
| --- | --- | --- |
| Cc1cc(S(=O)(=O)NCCCN2CCOCC2)ccc1F | -11%[1.46 µM] | -10% |
| CC1CCN(Cc2c(C(=O)N/N=C/c3cc(Br)ccc3O)nnn2-c2nonc2N)CC1 | ? | ? |
| Cc1cc(Cl)cc(Cl)c1OCCOc1cccc2cccnc12 | nt | -23% |
| CC(=O)c1sc(Nc2cccc(C)c2)nc1C | -14% | -4% |
| CCN(CC)C(=O)c1oc2ccc(S(=O)(=O)N3CCCCCC3)cc2c1C | -1% | -16% |

The list continues.
SMILES	VACV mCherry inh	VACV Venus inh
O=C(CSc1nnc(Nc2ccccc2F)s1)c1cc2ccccc2o1	i	-5%
COc1cccc(-n2c(SCC(=O)O)nnc2-c2cccnc2)c1	i	-7%
O=C(CSc1nccn1Cc1ccc(Cl)cc1)Nc1ccc2c(c1)OCCO2	i	-10%
CC(=O)Nc1cc(-c2cccc(F)c2)cn2c(-c3ccccc3)cnc12	i	-8%
Cc1ccc(CNc2nc(C)cs2)cc1	-4%	-14%
CC(C)(C)NC(=O)C(=O)NNC(=O)COc1ccccc1	i	1%
CCCCCNC(=O)C(c1ccc(-c2ccccc2)cc1)n1c(=O)c(-c2ccccc2)nc2ccccc21 (centres undefined)	-12%	-1%
Cc1cc(=O)n2c(C(=O)Nc3ccc(Br)cc3)c(C(=O)Nc3ccccc3)sc2n1	-5%	2%
O=C(COC(=O)c1cc([N+](=O)[O-])ccc1N1CCOCC1)Nc1ccc(Cl)cc1	i	-18%
CCCCOc1ccc(CNC(=O)c2ccc3c(c2)N(C)C(=O)C2CCCCN32)cc1 (centres undefined)	-20%	-7%
CC(C)(C)c1cc(N)n(-c2ccc(C(=O)O)cc2)n1	-2%	-4%
CCc1ccccc1NC(=O)CN1CCN(C(=O)C(C)NC(=O)c2ccc(Cl)cc2)CC1 (centres undefined)	-14%	-7%
N#C/C(=C\c1ccc(-c2ccccc2[N+](=O)[O-])o1)C(=O)Nc1nc(-c2cccs2)cs1	-5%	-16%
O=C(CN(C(=O)CCC(=O)Nc1ccccn1)c1ccc(F)cc1)NCc1ccc(F)cc1	-15%	-13%
CS(=O)(=O)N(CC(=O)Nc1ccc(S(=O)(=O)N2CCOCC2)cc1)c1ccccc1Cl	-16%	-4%
O=c1c2ccccc2cnn1Cc1n[nH]c(=S)n1-c1ccccc1	-10%	-14%
COc1ccc(CCNC(=O)c2cc(-c3ccc(Cl)cc3)on2)cc1OC	-14%	0%
CCOc1ccc(-c2nnc(SCC(=O)Oc3ccccc3)o2)cc1	-12%	-5%
ClC(Cl)(Cl)c1ccccc1	i	-9%

Molecules above with a tert-butyl group:
SMILES	VACV mCherry inh	VACV Venus inh
CC(C)(C)N1C(=O)c2ccccc2NC(=O)C1C(=O)NCCOc1ccccc1 (centres undefined)	7%	-12%
Cc1cc2nc(NCCCO)n(CC(=O)c3cc(C(C)(C)C)c(O)c(C(C)(C)C)c3)c2cc1C	?	10µM*
CC(C)(C)NC(=O)C(=O)NNC(=O)COc1ccccc1	i	1%
CC(C)(C)c1cc(N)n(-c2ccc(C(=O)O)cc2)n1	-2%	-4%

Screening data as filed in PubChem BioAssay.
